ClpP mod – qHTS Assay for Activators of ClpP | purified B. subtilis ClpP, FRET peptide cleavage, 20 min | actives 1.9% (n = 340,000) | Potency, µM (titrated, usually from 57.5 µM), inactives show at the highest dose activity change, negative = active | ATP-dependent Clp protease proteolytic subunit (Bacillus subtilis (strain 168)), P80244; active = well fitted falling curve with a large enough effect; inconclusive = small, poorly fitted or top-dose-only effect; inactive = no such curve, though single readings can be large or run the other way; also: potency is read from the fitted curve at half-maximal effect; the source files actives as falling curves though it sought activators and does not explain the sign; nearly all actives have a fitted effect of over 65% in size; many hits overshoot -100%
Target sequence (P80244 whole entry, looked up): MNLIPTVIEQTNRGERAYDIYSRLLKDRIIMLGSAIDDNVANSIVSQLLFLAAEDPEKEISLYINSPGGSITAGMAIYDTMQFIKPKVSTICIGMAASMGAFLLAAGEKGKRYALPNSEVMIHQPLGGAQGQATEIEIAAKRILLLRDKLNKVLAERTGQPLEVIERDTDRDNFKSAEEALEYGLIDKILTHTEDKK
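ClpP 10 microg/mL final, pH 8 Tris/KCl buffer with BSA, glycerol, Tween-20; compound pinned in; FRET-FV substrate; RT 20 min; Ex320/Em430; ΔFRET vs ADEP 5.8 microM, DMSO, no enzyme.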
TRPML1 ag – agonists of human TRPML1 channel; TRPML1-expressing cells, Ca2+ dye fluorescence, FDSS; host cell line not named in the record; reference of the full effect not given here; activation, % (no concentration beside the values); actives 0.12% (n = 410,000); Q9GZU1; in the data active = activation above about 50%; inconclusive = about 30% to 50%; inactive = below about 30%; also: 0% is about no effect; the text of the record puts the active cut at 80%
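In this qHTS format, compounds were pin-transferred onto Ca8-dye-loaded TRPML1-DL cells induced with Tet overnight, and intracellular Ca2+ fluorescence was recorded kinetically for 110 s after a 10 s baseline. A subsequent 4uM final 54-4 (EC80) addition followed by a second 110 s read served as the antagonist phase.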
PINK1 expr mod – PINK1 expression modulation; PINK1 immunofluorescence, high-content cytometry, 24 h; Potency, µM (titrated, usually from 76.6 µM), without a hit: at the highest dose activation (PINK1 increase), most hits filed as activators; actives 0.2% (n = 410,000); active = well fitted activation curve with a large enough effect; inconclusive = small, poorly fitted or top-dose-only effect; inactive = flat fitted curve, though single readings scatter; cell line not stated here;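 also: potency is read from the fitted curve at half-maximal effect; % of control where 0% means no effect; nearly all actives have a fitted effect of over 65% in size; a mitochondrial uncoupler was the plate control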
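Compound titrations (5 concentrations, 24 h) on a stable cell line; DMSO and CCCP controls. Endpoint: fixed-cell PINK1 immunofluorescence with mitochondrial, cell and nuclear markers, scanned by microplate cytometer.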
TRPML1 blocker – blocks the human TRPML1 channel; TRPML1-inducible cells, Ca2+ dye fluorescence, FDSS; stronger effect = lower value; inhibition of EC80 agonist-evoked calcium signal; activity change, negative = inhibition, % (concentration not given with the values); actives 0.02% (n = 390,000); in the data active means activity change below about -50%; inconclusive means about -30% to -50%; inactive means above about -30%;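 also: stimulus is agonist 54-4 at its EC80 concentration; % is scaled to controls: 0 for no effect and ±100 for the full control effect; compound concentration not given in the record; the text of the record puts the active cut at -80%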
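Calcium fluorescence in TRPML1-DL cells induced overnight with Tet: a 110 s read after compound pin addition, then a 110 s antagonist read after challenge with 54-4 at 4 uM final (EC80).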
TRPV1 PAM – potentiators of human vanilloid receptor 1 (TRPV1); Q8NER1; TRPV1-expressing cells, Fluo-8 calcium influx, capsaicin EC20 potentiation; host cell line not named in the record; control for the full effect not named in the record; potentiation, % at 8.33 µM; actives 0.02% (n = 320,000); AID 540277; active means potentiation above 80%; inconclusive means 30% to 80%; inactive means below 30%; also: 0% is about no effect
Target sequence (Q8NER1 whole entry, looked up): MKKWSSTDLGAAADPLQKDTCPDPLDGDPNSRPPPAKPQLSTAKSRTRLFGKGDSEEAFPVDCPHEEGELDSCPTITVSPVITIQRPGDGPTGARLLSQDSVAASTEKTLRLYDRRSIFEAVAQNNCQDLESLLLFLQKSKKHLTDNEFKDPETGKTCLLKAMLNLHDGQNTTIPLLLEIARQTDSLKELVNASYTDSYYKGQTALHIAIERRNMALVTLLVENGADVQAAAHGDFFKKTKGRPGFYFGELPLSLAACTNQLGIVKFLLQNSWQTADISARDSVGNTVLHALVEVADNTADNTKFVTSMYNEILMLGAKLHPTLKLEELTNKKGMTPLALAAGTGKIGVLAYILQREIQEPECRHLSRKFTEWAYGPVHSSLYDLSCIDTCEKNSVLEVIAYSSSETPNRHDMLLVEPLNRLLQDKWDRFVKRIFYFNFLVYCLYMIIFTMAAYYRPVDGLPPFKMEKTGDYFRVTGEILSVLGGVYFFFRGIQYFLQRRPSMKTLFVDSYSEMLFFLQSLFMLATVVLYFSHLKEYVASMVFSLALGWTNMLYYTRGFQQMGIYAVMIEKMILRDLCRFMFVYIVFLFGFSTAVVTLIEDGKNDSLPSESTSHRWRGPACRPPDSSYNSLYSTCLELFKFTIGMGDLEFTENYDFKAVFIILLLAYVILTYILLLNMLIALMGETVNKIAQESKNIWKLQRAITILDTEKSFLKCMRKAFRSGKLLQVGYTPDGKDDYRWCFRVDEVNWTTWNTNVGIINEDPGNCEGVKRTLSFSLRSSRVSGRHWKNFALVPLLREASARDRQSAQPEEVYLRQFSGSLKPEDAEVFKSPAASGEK
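Fluo-8 calcium influx in TRPV1-expressing cells, kinetic read (ex 480/em 520 nm). Compound added and read 3 min for agonist activity, followed by capsaicin at EC20 final and 2 min further read for enhancement.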
Sfp inh – blocks B. subtilis Sfp PPTase activity | Q9F4F7 | Biochemical Sfp PPTase activity, qHTS | Potency, µM, for inactives: max response, negative = inhibition, usual class: inhibitors | actives 3.5% (n = 310,000) | AID 1490; active = well fitted inhibition curve with a large enough effect; inconclusive = small, poorly fitted or top-dose-only effect, or another doubt; inactive = no such curve, though single readings can be large or run the other way;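 also: the enzyme is Sfp with the accession as filed and its product quenches rhodamine fluorescence; potency is read from the fitted curve at half-maximal effect; 0% = enzyme reaction without inhibitor and -100% = no enzyme wells; top concentration of the series not given in the record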
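Compounds were incubated with enzyme (final 15 nM) for 15 min at room temperature before substrate addition started the reaction. Fluorescence at 525 nm excitation, 598 nm emission was recorded immediately and after 30 minutes.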
Menin MLL FP FL – displaces fluorescein MLL peptide from human menin; 290,000 tested, under 10 active; FP activity change, % at 61.4 µM; Fluorescence polarization, fluorescein-MLL peptide displacement from menin; inconclusive = falling polarisation curve, or a change in total fluorescence; inactive = total fluorescence flat and polarisation flat or rising; no compound was filed as active; the % refers to the polarisation; negative = inhibition;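 also: % of control where 0% means no effect; inhibitors lower the polarisation; unlabelled MLL peptide was the positive control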
* hit, by the source's call; ? = inconclusive; . = no result given; & = joins results of further samples; [ ] = remark or other dose.

SMILES | ClpP mod | TRPML1 ag | PINK1 expr mod | TRPML1 blocker | TRPV1 PAM | Sfp inh | Menin MLL FP FL
CCn1c(SCC(=O)NCC2CCCO2)nnc1-c1ccc(Cl)cc1 (configuration not stated) | . | 1.2 | 1.4% | 8.4 | -2.7 | 16.6% | 2.8
Cc1ccc(S(=O)(=O)N2CCN(C(=O)C3Cc4ccccc4CN3C(=O)c3ccco3)CC2)cc1 (configuration not stated) | 2.5% | -0.6 | -1.3% | -5.5 | -5.0 | -19.7% | 4.6
N#Cc1ccc(S(=O)(=O)NCC(=O)OCC(=O)N2CCCC2=O)cc1 | 14.1µM* | 0.8 | -0.7% | -5.0 | ? | . | .
CC(Cc1ccccc1)C(=O)NCCO (configuration not stated) | -1.4% | -0.5 | 0.2% | 6.7 | -4.8 | 26.7%&10.7% | -0.7&1.9
CCOc1cccc(C(=O)Nc2ccc(NC(=O)c3ccc(Br)cc3)cc2)c1 | -0.4% | -0.5 | -0.4% | 3.2 | . | . | .
CN(C)c1ccc(/C=C(\NC(=O)c2ccccc2)C(=O)NCCN2CCOCC2)cc1 | . | -0.3 | -0.4% | 9.2 | 3.5 | 12.1% | 8.9
O=C1O[C@H](CO)[C@@H](O)[C@H](O)[C@H]1O | 0.1% | -0.2 | -0.1% | 3.2 | . | . | .
Nc1ccc(C(=O)OCC(=O)NC2CCS(=O)(=O)C2)cc1[N+](=O)[O-] (configuration not stated) | 1.2% | . | -0.4% | . | 3.3 | 19.9% | -5.5
C[N+](C)(C)C[C@H](O)CC(=O)[O-] | 2.2% | . | 0.7% | . | 8.7 | . | .
CN(C)CCNc1nc2sc3c(c2c(=O)n1CCc1ccccc1)CCCCC3 | -2.2% | 0.4 | -2.0% | 8.1 | -11.7 | -18.0% | -0.8
COC(=O)[C@@H]1C[C@H]2CC[C@H](O)C[C@H]2N1Cc1ccc(Cl)cc1 | -3.1% | -0.5 | -0.7% | 32.2 | 14.4 | 14.9%&-6.1% | 0.3&6.2
NC(=O)c1sc(-c2ccsc2)cc1NS(=O)(=O)c1ccc(C(F)(F)F)cc1 | . | 0.5 | ? | 3.6 | 11.1 | -8.4% | ?
CCN(CC)c1ccc(/C=N/N2CCN(Cc3ccc(C)cc3C)CC2)c(O)c1 | 2.3% | -0.5 | ? | 21.7 | -13.1 | 2.7% | 3.1
CC(=O)N(C)c1nnc(-c2ccccn2)s1 | ? | 0.1 | -0.2% | -1.7 | 4.3 | 10.4% | 1.4
O=C(CCCn1c(=S)[nH]c2cc3c(cc2c1=O)OCO3)N1CCN(c2ccc(F)cc2)CC1 | -0.3% | 1.2 | -2.4%[38.3 µM] | 27.5 | 4.6 | 14.5% | 1.9
CCn1nc(C)cc1C(=O)Sc1cccc(Cl)c1 | . | 0.7 | 12.2% | -7.7 | -12.0 | -7.7% | 1.2
CC(C)(C)NC(=O)CC(c1ccccc1)c1ccccc1O (configuration not stated) | -3.6% | -1.1 | -2.9% | -6.9 | -6.1 | 9.6% | 1.1
Cn1cc(Br)c(-c2cccc(NC(=O)CCC(=O)O)c2)n1 | . | 0.4 | -0.4% | 21.7 | -4.5 | 18.5% | 0.4
CC12CCC(C(=O)N(CC(O)CN3CCCCC3)C1=O)C2(C)C (configuration not stated) | -1.2% | 3.8 | -0.1%[38.3 µM] | -16.9 | -10.0 | 7.8% | -0.1
CC1CCCCC1NS(=O)(=O)CCNC(=O)c1ccccc1 (configuration not stated) | -6.1% | -0.2 | -2.9% | -1.6 | 10.3 | . | .
Cc1nc(N2CCCC2)ncc1C(=O)NCc1cccc(Cl)c1 | ? | 3.3 | -0.4% | 9.0 | . | . | .
O=C(Nc1cccnc1)c1cc2cc(Br)ccc2oc1=O | . | 0.2 | 3.6% | -2.0 | 4.4 | -23.1% | -1.3
COc1ccccc1CNc1nc2cc(-c3sccc3C)sc2c(=O)n1C | ? | -0.5 | 5.9% | . | . | . | .
CC(=O)/C=C\c1ccccc1OC(=O)c1cc2ccccc2oc1=O | 15.4% | 0.9 | -1.3% | 1.6 | -10.7 | -4.6% | -5.1
COC(=O)[C@H]1C[C@@H]1[C@H](NC(=O)OCc1ccccc1)c1ccccc1 | -0.8% | 1.4 | -1.1% | 4.1 | 11.1 | -2.0%&16.1% | -0.8&-0.6
O=C(Nc1ccon1)c1ccccc1Cl | -0.6% | 3.1 | -3.5% | -8.8 | -5.3 | 23.1% | -1.8
COc1ccc(NC(=O)c2cccc(Cn3cc(Br)cn3)c2)cn1 | 1.4% | -0.2 | -2.5%[38.3 µM] | 9.9 | -16.9 | 6.7% | -8.8
CCCCNC(=O)C(c1ccc(OCC(=O)OC)c(C(=O)OC)c1)N(CCc1c[nH]c2ccccc12)C(=O)CCCCCN1C(=O)NC(c2ccc(-c3ccccc3)cc2)C(C(=O)OCc2ccccc2)=C1C (configuration not stated) | . | . | . | . | ? | -5.8% | 4.2
Fc1c(F)c(-n2nnc3ccccc32)c(F)c(F)c1Cl | -0.6% | -0.8 | 5.7% | 45.4 | -19.8 | -21.0% | -3.5
COc1ccc([N+](=O)[O-])cc1NC(=O)CSc1nc(C)cc(C)n1 | 1.6% | -0.3 | -1.5% | 22.6 | 2.2 | 22.4µM* | 6.9
Cc1cc(C)cc(-c2nnc(SCC(=O)c3c(N)n(C4CC4)c(=O)[nH]c3=O)o2)c1 | -2.1% | 0.1 | 3.3% | 8.0 | 19.9 | . | .
CCN(CC(=O)Nc1ccc(OC(F)F)cc1)C1CCCCC1 | 0.2% | -0.2 | 2.0% | -0.8 | -9.7 | 8.5% | 0.5
O=C1OC2C(O)COC23OC(O)CCC13O (configuration not stated) | 0.4% | -0.9 | 0.0% | . | . | . | .
Cc1ccc2nc(-c3ccccc3)c(CN3CCN(c4ccccc4F)CC3)n2c1 | -6.0% | -0.9 | 4.2% | -5.1 | -4.3 | -29.6% | -1.0
O=C(NCc1ccc(Cl)cc1)C(=O)NCC1OCCN1C(=O)c1ccc(Cl)cc1 (configuration not stated) | . | 1.0 | 7.0% | 6.1 | ? | 5.9% | 7.2
CC(C)C[C@H]1CN([C@@H](Cc2ccccc2)CN2CCC[C@H]2CN2C(=O)C(=O)NC[C@@H]2Cc2ccc(O)cc2)C(=O)C(=O)N1CC1CCCCC1 | 0.7% | -0.9 | -0.3% | . | . | . | .
Cc1nn(CC(=O)Nc2ccc(N3CCOCC3)cc2)c(C)c1[N+](=O)[O-] | -1.2% | 0.0 | 2.2% | -17.0 | . | . | .
CC[C@@H](C(=O)[C@@H](C)[C@@H](O)[C@H](C)[C@@H]1O[C@@H]([C@@H](CC)C(=O)O)CC[C@@H]1C)[C@H]1O[C@]2(C=C[C@@H](O)[C@]3(CC[C@@](C)([C@H]4CC[C@](O)(CC)[C@H](C)O4)O3)O2)[C@H](C)C[C@@H]1C | -0.9% | -0.3 | -0.7% | 24.6 | . | . | .
CCN(CC)c1nc2ccccc2nc1-n1nc(C)cc1C | -3.0% | 2.1 | 0.8%[38.3 µM] | 40.7 | -8.6 | 13.8% | 0.6
OC/C=C/c1ccc(O)c(O)c1 | . | . | 0.2% | . | . | 0.7% | 1.3
Cc1cc(NC(=O)CCC(=O)N(Cc2ccc(F)cc2)C(C(=O)NC2CCCC2)c2ccco2)no1 (configuration not stated) | . | 1.6 | 2.1% | -2.2 | -4.2 | 15.7% | -5.8
NC(=S)c1cnn2c(-c3cccc(C(F)(F)F)c3)ccnc12 | 4.2% | 1.9 | -1.5% | 17.1 | 12.6 | 3.5% | 5.1
Cc1nc(-c2ccc(F)cc2)c(CC(=O)N(C)CC(=O)Nc2c(C)cccc2C)s1 | -0.2% | 1.3 | -1.0% | -24.9 | 20.4 | . | .
Cc1ccc(C(=O)CCC(=O)N2CCC(C(N)=O)CC2)cc1 | -1.1% | 0.0 | -0.4% | -6.8 | 14.6 | -11.7% | 3.2
Cc1ccccc1C(=O)NC(=S)N(C)C1CCCCC1 | -1.5% | 1.6 | 3.1% | 4.6 | -6.1 | 11.8% | 0.6
Cc1ccccc1OCc1nnc(SCC(=O)Nc2c(C)n(C)n(-c3ccccc3)c2=O)n1-c1ccccc1 | . | 0.5 | -1.6% | -14.6 | -2.4 | 12.6% | -0.5
COc1ccccc1C(=O)NCc1ccccc1 | -5.7% | 0.3 | -1.6% | -16.9 | ? | -9.5% | -0.4
Cc1cc(CSc2ccccc2)ccc1NC(=O)c1cccc([N+](=O)[O-])c1 | 0.0% | 1.5 | 12.7% | 34.4 | 2.9 | -8.7% | -1.0
Cc1ccccc1CN1CCN(C(C)C(=O)NNC(=O)c2ccc(F)cc2)CC1 (configuration not stated) | 0.4% | 1.3 | 1.3% | 13.7 | -4.2 | . | .
CC1=CC(=C(C#N)C#N)C=C(C)N1CCN1CCN(C(=O)Nc2cccc(Cl)c2)CC1 | -27.5% | 0.8 | ? | -7.5 | -0.4 | 18.5% | 3.1
COc1ccccc1-n1c(SCC(=O)Nc2cccc(C)c2)nc2c(c1=O)SCC2 | -2.7% | 0.3 | 1.0% | -15.3 | . | 9.6% | 6.9
O=C1C(Cl)=C(NCC2CCCO2)C(=O)N1Cc1ccccc1 (configuration not stated) | -0.2% | -0.7 | 25.8%[38.3 µM] | -2.2 | 2.9 | -17.2% | 0.2
Cc1ccc(S(=O)(=O)N2CCC(C(=O)N3CCCC(C(F)(F)F)C3)CC2)cc1C (configuration not stated) | -2.9% | 1.2 | -1.0% | 15.3 | 0.7 | . | .
Clc1cccc(CSc2nnc(C3CCNCC3)o2)c1 | 2.8% | -0.4 | -0.3% | 33.6 | . | . | .
CCn1c(SCC(=O)N/N=C/c2cccs2)nc2ccccc21 | -0.9% | 1.3 | 4.5% | -10.0 | 0.5 | -6.0% | 6.1
CCc1ccc(NC(=O)C(=O)NCCN2CCN(S(C)(=O)=O)CC2)cc1 | -0.2% | -0.7 | 3.8% | -7.9 | 9.3 | 4.7% | 4.7
Cc1ccc(NC(=O)C2CCN(S(=O)(=O)c3ccc4[nH]c(=O)oc4c3)CC2)cc1F | . | -0.1 | 1.5% | 1.8 | 6.1 | 12.0% | 3.9
O=Cc1cn(-c2ccccc2)nc1-c1ccncc1 | 7.3% | 0.7 | 4.4% | 22.7 | -2.5 | 7.1% | -1.8
CCN(CC)c1ccc(NC(=O)C2=CCN(S(=O)(=O)c3ccc(F)cc3)CC2)c(C)c1 | 1.8% | -0.7 | 0.0% | -12.0 | -29.0 | -4.7% | 4.4

Screening results as filed in PubChem.
